Source: PubChem (National Center for Advancing Translational Sciences (NCATS))
GLA inh pH 4.5 = blocks human alpha-galactosidase A at pH 4.5; P06280; purified enzyme, 4-MU-alpha-Gal fluorescence, pH 4.5; activity change, negative = inhibition, % at 105 µM; 230,000 tested, under 10 active; inconclusive = small, poorly fitted or top-dose-only inhibition, or a rising curve; inactive = flat fitted curve, though single readings scatter; no compound was filed as active;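 further: 0% = full activity with enzyme and -100% = basal without enzyme; dose as in the result columns while the protocol names 77 µM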
Target sequence (P06280 whole entry, looked up): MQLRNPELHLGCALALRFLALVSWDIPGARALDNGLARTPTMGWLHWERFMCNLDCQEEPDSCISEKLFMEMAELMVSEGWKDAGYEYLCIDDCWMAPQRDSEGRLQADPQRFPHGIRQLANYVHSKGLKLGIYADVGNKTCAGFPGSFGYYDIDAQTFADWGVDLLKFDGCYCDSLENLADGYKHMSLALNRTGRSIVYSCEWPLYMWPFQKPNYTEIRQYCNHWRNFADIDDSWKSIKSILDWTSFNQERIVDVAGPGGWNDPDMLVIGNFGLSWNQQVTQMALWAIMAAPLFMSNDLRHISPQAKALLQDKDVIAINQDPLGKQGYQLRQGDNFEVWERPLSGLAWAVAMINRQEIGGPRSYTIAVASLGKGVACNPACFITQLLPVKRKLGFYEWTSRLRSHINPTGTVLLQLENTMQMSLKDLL
Rango complex inh = Rango-importin beta binding inhibition; Q14974; Rango CFP/YFP FRET sensor + importin beta, 45 min; Potency, µM (titrated, usually from 92.2 µM), for the others: at the highest dose inhibition of complex formation; actives 0.031% (n = 340,000); AID 540263; active = rising FRET ratio curve, often small or poorly fitted; inconclusive = mostly compound fluorescence or quenching in the first reads; inactive = flat curves in all reads;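 further: potency means the concentration at half of the fitted maximal effect; 0% = DMSO wells and 100% = buffer wells lacking importin beta; nearly all actives have a fitted effect of over 15% in size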
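FRET biosensor (snurportin 1 IBB flanked by EYFP and cerulean), 50 nM, with compound 5 min, then 0.125 microM importin beta in PBS, 1 mM DTT, 0.02% Tween-20, 0.1% BSA. CFP/YFP ratio read after 45 min at room temperature; pre-read flags interference.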
Rango release inh = prevents RanGTP from dissociating the Rango-importin beta complex | O95149+P62826 | actives 0.071% (n = 340,000) | Biochemical FRET Rango-importin beta, RanGTP-induced dissociation | Potency, µM (series often up to 46.1 µM), without a hit: top-dose activity change, negative = inhibition | AID 540253; active means falling FRET ratio curve, often poorly fitted, with flat reads before Ran was added; inconclusive means other falling curves, or compound fluorescence or quenching; inactive means flat or rising ratio curve;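 further: potency means the concentration at half of the fitted maximal effect; % of control where 0% means no effect; nearly all actives have a fitted effect of over 45% in size; -100% = wells without RanGTP and RCC1; the record marks most hits as doubtful in a second field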
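Quantitative HTS using a FRET biosensor: 0.1 uM Rango, 0.25 uM importin beta, 0.6 uM Ran, 2 mM GTP, 0.2 uM RCC1 final, PBS with DTT, Tween-20 and BSA. Post-read taken 45 min after Ran addition.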
miR-21 FLuc = raises the signal of a miR-21 reporter. HeLa miR-21 FLuc reporter, luciferase, 48 h. Potency, µM (series often up to 38.3 µM), without a hit: top-dose reporter change, positive = more light. 340,000 tested, under 10 active. AID 2288; active = well fitted rising curve with a large enough effect; inconclusive = small, poorly fitted or top-dose-only effect; inactive = no such curve, though single readings can be large or run the other way;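 further: % of control where 0% means no effect; miR-21 action dims this reporter so a rising signal means less miR-21 action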
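Using DMEM plus 10% FBS, HeLa miR-21-FLuc cells are incubated with test compounds (final up to about 40uM) for 48 hours; firefly luciferase signal is then imaged following reagent-mediated lysis.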
* hit, by the source's call; ? = inconclusive; nt = no result given.

molecule	GLA inh pH 4.5	Rango complex inh	Rango release inh	miR-21 FLuc
COc1ccc(C(=O)/C=C/c2ccc(N(C)C)cc2)c(OC)c1	-12.1	0.4%	?	-0.1%
CC(C)(C)NC(=O)CCC1COc2ccccc2O1 (stereo not given)	2.9	-1.8%	-3.8%	-1.6%
COc1ccc(OC)c(N=c2oc3cc(O)ccc3cc2C(N)=O)c1	16.3	?	?	-41.5%
CCOC(=O)c1c(C2CC2)csc1NC(=O)COC(=O)CCS(=O)(=O)c1ccc(C)cc1	1.6	-1.2%	-8.0%	-4.7%
CCOC(=O)Cc1csc(NC(=O)c2cc(C)cc(C)c2)n1	2.7	-0.1%	18.6%	-7.2%
COC(=O)C1=C(C)N(CCCC(=O)O)C(=O)NC1c1ccc(C#N)cc1 (stereo not given)	nt	4.2%	9.7%	nt
CCc1c(C)sc(NC(=O)C2CC(c3c(F)cccc3Cl)=NO2)c1C#N (stereo not given)	nt	-4.1%	-8.1%	-22.2%
O=C(c1ccc(Br)o1)N1CCN(C23CC4CC(CC(C4)C2)C3)CC1	nt	0.2%	1.1%	nt
CC(=O)c1cn(CC(=O)Nc2cccc(C)c2C)c2ccccc12	-3.3	0.6%	-8.3%	19.9%
CC1(C)CC(=O)C(C=Nc2cccc(/N=C/C3=C(O)CC(C)(C)CC3=O)n2)=C(O)C1	9.2	nt	nt	0.5%
Cc1ccc(NC(=O)COc2ccccc2C(N)=O)cc1S(=O)(=O)N1CCCCCC1	nt	-1.9%	5.0%	nt
COc1ccc(S(=O)(=O)c2ccccc2)cc1NC(=O)c1c(F)cccc1F	nt	-0.7%	-3.3%	10.7%
CN(C1=C(N2CCCCC2)C(=O)c2ccccc2C1=O)c1ccccc1	-6.8	-1.0%	-2.8%	4.5%
O=C(CCN1C(=O)/C(=C/C=C/c2ccccc2)SC1=S)Nc1cccnc1	-3.5	-1.8%	-3.5%	-7.4%
N/C(=N\OC(=O)C(c1ccccc1)c1ccccc1)c1cccnc1	3.9	9.4%	16.9%	-11.3%
COc1ccc(Br)cc1/C=N/Nc1ccc(Cl)c(C(=O)O)c1	-5.6	?	3.8%	-9.2%
O=C(O)c1cnc(-c2ccccc2)nc1Sc1ccc(Cl)cc1Cl	-4.6	-8.3%	14.3%	-4.2%
CC1(C)CC[C@]2(C(=O)O)CC[C@]3(CO)C(=CCC4[C@@]5(C)C[C@H](O)[C@H](O)[C@@](C)(C(=O)O)C5CC[C@]43C)[C@@H]2C1 (stereo not given in full)	nt	0.1%	-5.4%	nt
Cc1nc(NC(=O)c2ccccc2)sc1C	nt	-2.4%	-7.2%	-20.6%
Cc1ccc(N(C(C)C(=O)O)S(=O)(=O)c2cccnc2)cc1 (stereo not given)	-9.3	-2.3%	-17.6%	-0.5%
Cc1[nH]c2ccccc2c1C(=O)C(=O)NCc1cccs1	-1.2	?	-9.8%	-10.1%
COC(=O)Nc1ccc(S(=O)(=O)Nc2cccc3ccccc23)cc1	-26.5	1.1%	0.3%	17.0%
COc1cccc(C(C(=O)NC2CCCCC2)N(C(=O)c2cccs2)c2ccc3c(c2)OCO3)c1 (stereo not given)	7.9	0.9%	-1.6%	-12.0%
CC(CCc1ccccc1)C(=O)NO (stereo not given)	-4.8	-1.8%	7.0%	-6.4%
Cc1ccc(C(OC(=O)c2ccco2)C(=O)NC(C)(C)C)cc1 (stereo not given)	nt	4.2%	-10.2%	0.0%

Additional entries:
molecule	GLA inh pH 4.5	Rango complex inh	Rango release inh	miR-21 FLuc
O=C(NCc1ccc2c(c1)OCO2)C1CCN(S(=O)(=O)c2ccc(Br)s2)CC1	-4.6	4.7%	0.1%	-0.2%
CC(C)(C)OC(=O)C1C(=O)CC(C)(O)C(C(=O)OC(C)(C)C)C1c1cccnc1 (stereo not given)	8.7	-5.8%	0.0%	0.0%
CC1(C)CC(=O)C(C=NCCCO)=C(O)C1	-5.1	1.9%	2.7%	0.3%
O=C(NC1CCCC1)C(c1cccs1)N(C(=O)c1ccno1)c1ccccc1 (stereo not given)	5.6	0.5%	16.9%	-3.1%
NC(=O)Cc1ccc(C(=O)c2ccc(Cl)cc2Cl)s1	-19.3	-1.7%	-9.7%	-24.7%
CCCCNC(=S)Nc1ccc2cn[nH]c2c1	-4.9	0.7%	2.7%	-3.7%
Cc1cccc(-c2nsc(SCC(=O)Nc3nccs3)n2)c1	4.0	0.0%	-6.3%	-28.6%
Cc1csc(=O)n1CC(=O)OCC(=O)Nc1ccccc1C(C)C	nt	-13.6%	-2.1%	nt
CSC(=Nc1ccccc1)Nc1ccccc1	-4.8	6.7%	8.3%	-1.3%
CCCNC(=S)Nc1ccc2nc(-c3ccccn3)c(-c3ccccn3)nc2c1	8.0	?	-15.8%	-7.1%
CCOC(=O)C1CC(C)=C(C)CC1C(=O)O (stereo not given)	5.2	1.0%	-0.6%	-0.2%
O=C(c1ccc([N+](=O)[O-])cc1)n1nc(-c2ccccc2)nc1NCc1ccc(F)cc1	-7.3	-0.1%	1.4%	-42.4%
O=C(CSCc1ccc([N+](=O)[O-])cc1)NCCSCc1ccccc1	1.4	-0.9%	0.1%	0.6%
Cc1ccc(CNc2nc(-c3cccs3)nc3ccccc23)cc1	-1.9	0.7%	?	-4.5%
CC(=O)c1cccc(N(CC(=O)O)S(C)(=O)=O)c1	2.1	0.5%	-12.8%	-2.2%
COc1ccc(Cl)cc1NC(=O)CN(C)CC(=O)Nc1c(C)n(C)n(-c2ccccc2)c1=O	nt	-0.2%	1.5%	nt
O=C1CSC(=NC(=O)c2ccccc2)N1	-5.1	0.4%	-9.1%	-6.0%
CCOC(=O)c1sc2nc(C)c([N+](=O)[O-])c(COC)c2c1N	8.0	-2.1%	12.7%	-1.3%
Cn1c(N2CCOCC2)nc2c1c(=O)n(Cc1ccc(Cl)c(Cl)c1)c(=O)n2C	?	0.1%	0.2%	-12.5%
COCCNc1oc(-c2ccc(C)cc2)nc1C#N	6.0	-0.1%	1.3%	-56.9%
CCc1nnc(NS(=O)(=O)c2ccc(NC(=S)NC(=O)c3ccc(OC)cc3)cc2)s1	6.9	2.9%	-6.8%	-12.6%
Cc1cc(SCC(=O)Nc2cccnc2Cl)nc2ccccc12	-2.6	-0.7%	-0.9%	4.5%
CC(=O)c1ccc(NC(=S)N2CC(C)CC(C)C2)cc1 (stereo not given)	2.9	6.0%	-10.9%	-26.8%
O=C1CCC(=O)N1c1nc2nc(-c3ccccc3)cc(-c3ccccc3)n2n1	-3.6	-3.1%	-5.1%	-10.2%
c1ccc(OCCSc2nnc3sc4ccccc4n23)cc1	-0.1	0.4%	-29.2%	14.5%

The results go on:
molecule	GLA inh pH 4.5	Rango complex inh	Rango release inh	miR-21 FLuc
O=C(CN(C(=O)Cn1nnc(-c2cccs2)n1)c1cnc2ccccc2c1)NCC1CCCO1 (stereo not given)	-0.2	-3.3%	7.2%	-5.0%
CC1(C)NC(=O)N(CC(O)CN(c2ccccc2)S(=O)(=O)c2ccc([N+](=O)[O-])cc2)C1=O (stereo not given)	nt	-3.1%	-0.6%	5.0%
O=C(CCOc1ccccc1)Nc1cccc(S(=O)(=O)Nc2ccccc2Cl)c1	-21.3	5.1%	12.7%	14.5%
C[C@H](CO)N1C[C@H](C)[C@@H](CN(C)C(=O)Nc2ccc3c(c2)OCO3)Oc2ccc(NS(=O)(=O)c3ccc(F)cc3)cc2C1=O	nt	3.3%	-8.7%	nt
CCC(=O)NC(Nc1sc2c(c1C(=O)OC)CCN(C)C2)(C(F)(F)F)C(F)(F)F	4.3	?	?	-7.8%
O=C(Nc1cccc(Cl)c1)Nc1ccon1	nt	0.9%	1.6%	-12.1%
O=C(CSc1nc2ccccc2c(=O)n1-c1cccc(C(F)(F)F)c1)NC1CC1	-9.9	2.4%	7.1%	5.3%
CCCCCCn1cnc2c(c1=O)c1nc3ccccc3nc1n2/N=C/c1ccco1	1.7	-1.4%	-11.1%	-9.0%
CCc1ccc(C(O)(CC)C(CN2CCOCC2)c2ccccc2)cc1 (stereo not given)	nt	-0.8%	2.6%	12.1%
Cc1ccccc1N=C/C=C1/C=C(c2ccccc2)OC(C)(C)O1	-9.5	?	-15.8%	0.7%
COc1cc(/C=C/C(=O)OC2CC3CCC2(C)C3(C)C)ccc1O (stereo not given)	-4.3	?	-11.7%	-17.7%
CN(C)C(=S)Nc1ccc(Cl)cc1	2.5	-4.8%	0.3%	-3.5%
COc1cc(C=O)ccc1OCc1ccccc1Br	-7.8	1.7%	-8.1%	-46.9%
Cn1c(-c2ccc(F)cc2)cnc1NCc1ccc(F)cc1F	nt	-4.1%	-17.5%	-13.2%
COc1cc(OC)c2ccc(=O)oc2c1C(CCN1CCCC(C)C1)c1ccc2c(c1)OCO2 (stereo not given)	-24.4	?	-1.4%	-3.3%
Fc1ccc(Nc2nnc(C(F)(F)F)s2)cc1	-6.2	-0.4%	-1.7%	-5.6%
COc1ccc(CCN(C)C(=O)C2CCCN(C3CCN(Cc4ccccc4)CC3)C2)cc1OC (stereo not given)	nt	-0.2%	2.4%	-2.2%
Cc1cc(Nc2cc(C)on2)n2ncnc2n1	8.4	-1.6%	-2.4%	1.3%
FC(F)(F)c1cnc(-c2cnc(-c3ccccn3)nc2)c(Cl)c1	1.5	3.6%	-11.1%	-56.9%
CN(C)c1ccc(/C=N/OC(=O)Nc2ccccc2Cl)cc1	-12.3	-0.8%	0.2%	-13.3%
CCNC(=O)C(=O)NCC1OCCCN1S(=O)(=O)c1cccs1 (stereo not given)	-1.8	-1.9%	4.9%	-0.4%
CCOC(=O)C1CCN(C(=O)C2(NC(=O)Nc3ccccc3Cl)CCCCC2)CC1	1.9	0.5%	16.7%	3.9%
CN(CCc1ccccc1)C(=O)c1cccc(NC(=O)Cc2cccc(NC(=O)C3CCN(C(=O)C4CCC4)CC3)c2)c1	nt	-0.6%	-2.0%	nt
Cc1cc(C)n2nc(C(=O)OCC(=O)N(Cc3ccccc3)C(C)C)nc2n1	nt	-0.3%	10.1%	nt
CCCN(Cc1ccc(N(C)C)cc1)CC1CC1	-0.7	2.8%	-9.0%	0.2%

(further entries)
molecule	GLA inh pH 4.5	Rango complex inh	Rango release inh	miR-21 FLuc
O=C(COC(=O)C1CC1)NCCc1ccc(Cl)cc1	nt	0.5%	-10.9%	nt
O=C(COC(=O)/C=C/c1ccco1)NCc1ccc2c(c1)OCO2	-2.1	-0.5%	-11.5%	-0.8%
CC(=O)Nc1ccc(NC(=O)COc2c(C)cc(Br)cc2C)cc1	0.6	?	-1.8%	-5.1%
CCOC(=O)CC(=O)CSc1nc2c(c(C)c1C#N)CCC2	-2.5	?	?	-15.4%
Cc1cc(Oc2ccc(Cl)cc2)nc(SCC(=O)c2ccccc2)n1	-3.8	-1.7%	-3.5%	-8.4%
COc1cc(CNC(=O)c2cccc(COc3ccc(Cl)cc3)c2)cc(OC)c1	-3.1	-2.2%	0.8%	-44.9%
Cc1c(C(O)CN2CCC(C(N)=O)CC2)c2ccccc2n1C (stereo not given)	-6.2	-0.7%	2.9%	1.6%
Cc1ccc(NC(=O)CCC(=O)N/N=C/c2ccco2)c(C)c1	5.6	-4.5%	-6.1%	-2.0%
CC(=O)c1ccc(N2CCN(C(=O)C3CCN(S(=O)(=O)c4ccc5c(c4)CC(C)N5C(C)=O)CC3)CC2)cc1 (stereo not given)	nt	-3.2%	-1.4%	8.0%

Single records, as listed above. Values in the order: GLA inh pH 4.5 | Rango complex inh | Rango release inh | miR-21 FLuc
O=C(COC(=O)/C=C/c1ccco1)NCc1ccc2c(c1)OCO2 as listed: -2.1 | -0.5% | -11.5% | -0.8%
CC(=O)Nc1ccc(NC(=O)COc2c(C)cc(Br)cc2C)cc1 as listed: 0.6 | ? | -1.8% | -5.1%
Cc1ccc(NC(=O)CCC(=O)N/N=C/c2ccco2)c(C)c1 as listed: 5.6 | -4.5% | -6.1% | -2.0%

Not all compounds are listed. The share of hits here may be higher or lower than overall.
